# Six1-Eya2 inh – qHTS Assay for Inhibitors of the Six1/Eya2 Interaction; actives 0.56% (n = 360,000); activity change, % (test concentration not listed); AID 651725, 2012; Homeobox protein SIX1 (Homo sapiens) + Protein phosphatase EYA2 (Homo sapiens), …; AlphaScreen GST-Six1/His-Eya2 binding, biochemical; hits give low values; control for the full effect not named in the record; in the data active = activity change below about -65%; inconclusive = about -30% to -65%; inactive = above about -30%; also: % is scaled to controls: 0 for no effect and ±100 for the full control effect; compound concentration not given in the record
# Target sequence (O00167 whole entry, looked up): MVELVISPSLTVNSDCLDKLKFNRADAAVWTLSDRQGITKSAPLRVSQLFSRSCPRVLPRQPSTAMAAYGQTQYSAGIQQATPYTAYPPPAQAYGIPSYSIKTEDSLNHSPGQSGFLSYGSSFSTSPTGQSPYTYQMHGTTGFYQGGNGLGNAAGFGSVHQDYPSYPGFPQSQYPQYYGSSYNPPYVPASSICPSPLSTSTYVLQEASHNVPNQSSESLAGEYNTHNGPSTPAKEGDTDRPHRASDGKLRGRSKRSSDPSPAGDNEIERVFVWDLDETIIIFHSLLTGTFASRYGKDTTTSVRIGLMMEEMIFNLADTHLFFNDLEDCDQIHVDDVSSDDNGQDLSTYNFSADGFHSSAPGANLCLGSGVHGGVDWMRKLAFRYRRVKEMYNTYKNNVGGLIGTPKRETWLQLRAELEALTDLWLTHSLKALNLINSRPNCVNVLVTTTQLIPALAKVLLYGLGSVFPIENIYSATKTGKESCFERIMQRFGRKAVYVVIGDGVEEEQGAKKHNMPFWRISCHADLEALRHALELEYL
# Target sequence (Q15475 whole entry, looked up): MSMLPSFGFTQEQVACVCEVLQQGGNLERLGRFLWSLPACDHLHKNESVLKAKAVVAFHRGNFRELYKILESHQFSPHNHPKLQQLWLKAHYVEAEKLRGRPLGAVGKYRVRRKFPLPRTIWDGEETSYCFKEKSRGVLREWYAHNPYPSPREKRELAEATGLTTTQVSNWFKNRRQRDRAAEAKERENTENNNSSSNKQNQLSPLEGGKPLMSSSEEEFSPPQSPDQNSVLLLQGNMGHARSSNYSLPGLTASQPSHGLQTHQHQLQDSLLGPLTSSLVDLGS
#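 Six1/Eya2 binding was read as AlphaScreen signal after compounds were pinned into GST-Six1 plus His-tagged Eya2 (5X stock 250/500 nM) in pH 8.0 Tris/NaCl/TCEP buffer, beads added, then incubated 1 h, 37 C, dark.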
# gsp antag – qHTS for Antagonists of gsp, the Etiologic Mutation Responsible for Fibrous Dysplasia/McCune-Albright Syndrome: qHTS; gsp-mutant cells, cAMP HTRF, 30 min; control for the full effect not named in the record; actives 0.4% (n = 340,000); AID 624288, 2012; Potency, µM (highest dose often 76.9 µM), for the others: at the top dose activity change, negative = inhibition, hits mostly inhibitors; active = falling curve of any shape with a large fitted effect; inconclusive = falling curve, mostly with a smaller effect; inactive = flat or rising curve; cell line not stated here;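 also: intracellular cAMP measured with PDE inhibitor Ro 20-1724 present during compound exposure; potency is read from the fitted curve at half-maximal effect; % is scaled to controls: 0 for no effect and ±100 for the full control effect; nearly all actives have a fitted effect of over 65% in size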
#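 Cells in G418 medium, seeded 16-24 h, 37C; buffer exchange to DPBS + 1 mM CaCl2, 0.5 mM MgCl2, 0.05% BSA; cpds in DMSO + […] (300 uM stock), 30 min 37C; HTRF cAMP detection.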
# D2 ag – Beta-Arrestin HTS for Positive Allosteric Modulators of the Human D2 Dopamine Receptor: Agonists; DiscoveRx PathHunter D2 beta-arrestin, luminescence, 90 min; 100% = 57 uM dopamine signal; activation, % (concentration not given with the values); actives 0.084% (n = 360,000); AID 624465, 2012; in the data active = activation above about 40%; inconclusive = about 15% to 40%; inactive = below about 15%; also: compound concentration not given in the record; the text of the record calls up to 30% inactive
#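 DiscoveRx PathHunter D2 beta-arrestin cells (2,100/well) attached overnight, then compound-stimulated 90 min at 37 C in HBSS/10 mM HEPES/0.1% Tween-20 buffer; beta-galactosidase complementation read by luminescence after 1 h at ambient temperature. Dopamine 57 uM final (EC100) as control.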
# gsp agonist – qHTS for Agonist of gsp, the Etiologic Mutation Responsible for Fibrous Dysplasia/McCune-Albright Syndrome: qHTS; gsp mutant cells, cAMP HTRF, 30 min; control for the full effect not named in the record; actives 0.13% (n = 340,000); AID 624287, 2012; Potency, µM (top dose mostly 76.9 µM), for inactives: at the highest dose activation (cAMP increase), most hits filed as activators; active = well fitted activation curve with a large enough effect; inconclusive = small, poorly fitted or top-dose-only effect, or another doubt; inactive = no such curve, though single readings can be large or run the other way; cell line not stated here;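 also: phosphodiesterase inhibitor Ro 20-1724 added with compounds to block cAMP breakdown; potency is read from the fitted curve at half-maximal effect; nearly all actives have a fitted effect of over 60% in size; about a fifth of the inactives were tested at one dose only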
#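 Cells in DMEM/10% FBS with G418 were pretreated with compounds in DMSO plus […] (300 uM stock) for 30 min at 37C. cAMP was measured by HTRF (cAMP-d2 plus anti-cAMP antibody-K) after 30 min at room temperature.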
# D2 potentiator – Beta-Arrestin HTS for Positive Allosteric Modulators of the Human D2 Dopamine Receptor: Potentiators; actives 0.23% (n = 360,000); DiscoveRx D2 beta-arrestin cells, luminescence, 90 min; 100% = 57 uM dopamine signal; AID 624464, 2012; potentiation, % (no concentration beside the values); active = potentiation of 50% or more; inconclusive = 30% to 50%; inactive = 30% or less;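 also: compound concentration not given in the record; tested on top of an EC20 dose of dopamine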
#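 PathHunter D2 cells, attached overnight at 37 deg C, received compound in DMSO plus dopamine at EC20 (50 nM final) for 90 min at 37 deg C. Beta-arrestin recruitment was read as luminescence after 1 h with detection reagent at ambient temperature.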
# CtBP-E1A inh – qHTS Assay for Inhibitors of the CtBP/E1A Interaction; CtBP / adenovirus E1A interaction (AlphaScreen); AlphaScreen GST-E1A/His-CtBP binding, 1536-well; hits give low values; control for the full effect not named in the record; activity change, % (no concentration beside the values); actives 0.49% (n = 340,000); AID 651724, 2012; in the data active means activity change below about -65%; inconclusive means about -30% to -65%; inactive means above about -30%; also: % is scaled to controls: 0 for no effect and ±100 for the full control effect; compound concentration not given in the record
#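 Steps: dispense buffer (Tris pH 8.0, NaCl 300 mM, TCEP 1 mM, BSA, Tween 20); add 5X protein mix (GST-E1A, His-CtBP, 125 nM each); pin 23 nL compound; 2 h at 37 °C, dark; add 5X beads (50 ug/mL); 1 h; read.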
# * = called active by the depositor; ? = inconclusive; nt = no result given; & = joins results of further samples; [ ] = another dose, or the depositor's remark.
# Below each compound: Six1-Eya2 inh	gsp antag	D2 ag	gsp agonist	D2 potentiator	CtBP-E1A inh
- O=C(/C(=C/c1ccccc1)c1ccccc1)N1CCCCC1
 : 10	-7%	-5.6	6%	-6	4
- COc1ccccc1-c1csc(C(NC(C)=O)c2cccc(F)c2)n1 (stereo not drawn)
 : 9	nt	-5.3	nt	-1	6
- O=C1CC[C@H](N2C(=O)c3ccccc3C2=O)C(=O)N1
 : 0	7%	-6.4	nt	-6	4
- CSc1ccc(/C=C2/C(=N)N3N=C(CC(=O)N4CCCC4)SC3=NC2=O)cc1
 : -8	-3%	-1.9	?	-8	-26
- CCCc1cc(C(=O)Nc2sc(C)c(C)c2C(=O)OCC)no1
 : 16	16%	-5.4	?	-1	23
- CCOC(=O)c1ccccc1NC(=O)CN1C(=O)c2ccccc2S1(=O)=O
 : 6	0%	-1.7	-24%	-23	6
- COCCn1c(C)cc(C(=O)COC(=O)c2ccc(Br)o2)c1C
 : -16	3%	-2.4	-27%[15.4 µM]	-7	-20
- COc1cc(/C=C2/SC(=S)N(CCC(=O)Nc3ccc(C(=O)O)cc3)C2=O)cc(OC)c1OC
 : -4	-6%	-3.8	17%	-11	3
- O=C1/C(=C/c2ccc(Cl)cc2)NC(=S)N1Cc1cccnc1
 : -6	?	1.7	-42%[inhibitor]	2	0
- COc1ccc2nc(SCC(=O)N3CCNC3=O)[nH]c2c1
 : 0	5%	-1.7	3%	-6	5
- O=C(Cn1nnc2ccccc21)OCC(=O)c1ccc(Cl)c(Cl)c1
 : 0	-2%	-14	-27%	-62	3
- O=C1OCC/C1=C\NCCCN/C=C1\CCOC1=O
 : -6	nt	-1.5	?	-6	-16
- O=C(CSc1nnc(-c2cccnc2)n1Cc1ccco1)NCc1ccc2c(c1)OCO2
 : -1	-1%	-1.0	24%	9	-3
- CCC(C)C(=O)Nn1c(C2CC2)nc2cc(OC)c(OC)cc2c1=O (stereo not drawn)
 : 3	6%	-0.1	-1%[15.4 µM]	-6	-3
- Nc1nc(NC(=O)/C=C\C(=O)O)nn1-c1ccccc1
 : -2	9%	-0.4	-3%[15.4 µM]	-6	nt
- Cc1nc(N2CCN(Cc3nc4ccccc4[nH]3)CC2)c2oc3ccccc3c2n1
 : -21	20%	-1.3	2%	-25	-13
- CC(Sc1ccc(Cl)cc1)C(=O)Nc1ccccc1-c1ccccc1 (stereo not drawn)
 : 45	-13%	2.1	28%	-27	50
- O=C(NCCc1ccccc1)C(=O)NCC1OCCN1S(=O)(=O)c1ccc2c(c1)OCCO2 (stereo not drawn)
 : 2	?	-0.7	-7%	14	5
- COc1ccccc1NS(=O)(=O)c1ccc(Cl)c(NC(=S)NC(=O)C2CCCC2)c1
 : -1	0%	-6.1	-20%	-20	-18
- COc1cc(C)c(C(=O)Oc2cc(C)c(C(=O)O)c(O)c2)c(O)c1
 : 11	?	11	nt	-24	3
- Cc1cc(NC(=O)c2cccc(F)c2)no1
 : 0	-5%	-2.6	1%	-16	2
- COc1ccc(N2CCN(c3ncccn3)CC2)cc1
 : -22	-7%	-0.7	-6%	-5	-7
- COc1ccc(-n2ncc3c(NCCCn4ccnc4)ncnc32)cc1
 : -7	7%	-3.7	-21%	-5	-10
- COc1cc2c3nc4n(c(=O)c3n(CC(=O)N3CCCC3)c2cc1OC)CCS4
 : 7	-1%	-2.6	16%[15.4 µM]	-1	-1
- O=C(Nc1ccccn1)C1CCN(S(=O)(=O)c2ccccc2)CC1
 : 0	-12%	-0.4	20%	-8	9
- Cc1cc(O)cc(C)c1Cl
 : 5	-4%	-5.9	nt	-10	8
- O=C(Nc1ccccc1Cl)c1ccccc1
 : 5	5%	0.8	4%[15.4 µM]	3	-5
- Cc1cc(NC(=O)C2C3C=CC(C3)C2C(=O)O)no1 (stereo not drawn)
 : 0	0%	2.3	?	4	7
- O=C(NC1CCCCC1)c1cc2nc3c(c(C(F)(F)F)n2n1)CCCC3
 : -2	-6%	-7.1	5%	-21	14
- COc1ccc(S(=O)(=O)Nc2cccc3c2O[C@H](CN(C)CC2CC2)[C@@H](C)CN([C@H](C)CO)C3=O)cc1
 : 3	1%	-0.6	nt	2	2

# (next part)
# Below each compound: Six1-Eya2 inh	gsp antag	D2 ag	gsp agonist	D2 potentiator	CtBP-E1A inh
- Cc1ccc(OCC(=O)Nc2cc(S(=O)(=O)N3CCCCC3)ccc2C)c([N+](=O)[O-])n1
 : -5	16%	-2.9	12%	-9	-7
- CCc1ccc(S(=O)(=O)Nc2ccc(O)c3ccccc23)cc1
 : -14	-10%	?	-18%	-14	nt
- CCN(CC)c1ccc(-c2c(C#N)c(N)nc(OC)c2C#N)cc1
 : 16	39%[activator]	-0.7	?	-5	-1
- N#Cc1nc(COc2ccc(Cl)cc2)oc1N1CCCC1
 : 0	-12%	-6.0	-40%[inhibitor]	-10	-17
- Cc1ccc(F)c(Oc2cc(NN3CCCCC3)c([N+](=O)[O-])cc2[N+](=O)[O-])c1
 : -16	-12%	-0.9	-15%	-6	-25
- CCOC(=O)C1CCN(S(=O)(=O)c2ccc3c(c2)N(C(C)=O)CCO3)CC1
 : 6	-2%	5.2	25%	-12	3
- CC(=O)c1cc(CN2CCC(C(=O)Nc3cccc(-c4cscn4)c3)CC2)cs1
 : -3	-15%	-2.6	13%[15.4 µM]	-44	7
- O=c1[nH]nc(Cc2ccc(Cl)cc2)c2ccccc12
 : -3	-12%	-1.0	11%	-1	-4
- CSCCC(NS(=O)(=O)c1ccc2c(c1)oc(=O)n2C)C(=O)NC1CCCc2ccccc21 (stereo not drawn)
 : -4	6%	0.3	6%	-1	-7
- CC(C)NC(=O)COC(=O)c1cc(Br)ccc1Cl
 : 1	-12%	-0.7	-37%[inhibitor]	12	5
- COc1cccc(C(=O)NC2CC3CCC(C2)N3Cc2ccccc2)c1 (stereo not drawn)
 : 1	6%	0.5	0%	-6	nt
- Cc1ccc2[nH]c3c(c2c1)CN(C)CC3
 : -6	9%	-3.2	17%	-36	6
- CCCCCC(=O)Nc1nnn(CCC)n1
 : 4	10%	1.7	?	-2	3
- COc1cc(/C=C/C(=O)O)cc(S(=O)(=O)N2CCCc3ccccc32)c1OC
 : -1	-23%	-5.8	?	-2	1
- Cc1ccc(OCCSc2cc(C)nc(N)n2)cc1
 : 11	2%	2.0	-43%[inhibitor]	12	1
- COc1ccc2c3c(cccc13)N(C)N=C2C
 : -23	-13%	7.3	18%	56*	-2
- COc1ccccc1OCCNC(=O)c1cc(=O)[nH]c2ccccc12
 : 1	-5%	-2.2	0%	-6	-10
- CC(C)(C)NC[C@H](O)COc1nsnc1N1CCOCC1
 : 2&4&1	9%&7%&-4%	-7.0&-7.0&-6.2	nt	-8&-6&-8	-20&-10&-1
- Cc1ccc(Cc2c(-c3ccccc3)nc3cc(C)ccn23)cc1
 : -2	nt	-11	?	1	-5
- CN(CC(=O)Nc1cc(C(F)(F)F)ccc1-n1cncn1)Cc1ccccc1N1CCOCC1
 : 8	-13%	8.7	3%	1	8
- O=C(COC(=O)CNC(=O)c1ccccc1)Nc1ccc(Cl)cn1
 : 1	-6%	1.0	-2%	-5	9
- O=C1N(c2ccc(Cl)cc2)C(c2ccccc2)N2CCCN12 (stereo not drawn)
 : -1	-23%	-2.1	-5%	1	4
- CC(C)(C)NC(=O)C(c1ccncc1)N(C(=O)Cn1nnc(-c2ccc(F)cc2)n1)c1cccc(F)c1 (stereo not drawn)
 : 8	-21%	4.2	?	2	10
- COc1ccc(OC)c(NC(=O)c2ccccc2NS(=O)(=O)c2cccc3cccnc23)c1
 : -5	-8%	-0.8	12%	-11	-13
- Cc1ccc(NC(=O)CN2CCN(C)CC2)cc1Br
 : 2	6%	-0.6	-25%	3	nt
- Cc1ncnc(N)c1CCCNc1ccccc1
 : 6	-2%	1.8	-36%[inhibitor]	-18	-11
- CCOc1cc(/C=C2/NC(=O)N(CC(=O)Nc3cccc(C)c3)C2=O)ccc1O
 : 0	4%	-3.3	-22%	-9	1
- c1ccc2c(c1)nc(NC1CCCCC1)c1nncn12
 : -7	6%	3.5	-34%[inhibitor]	-5	0
- O=C(Nc1ccccc1C(=O)N1CCCC1)C1CCN(c2ncccn2)CC1
 : 3	-3%	6.7	26%	9	7
- Cc1ccccc1C(=O)NNS(=O)(=O)c1ccc(F)cc1
 : 11	nt	-1.2	-17%	-18	-2

# Next section.
# Below each compound: Six1-Eya2 inh	gsp antag	D2 ag	gsp agonist	D2 potentiator	CtBP-E1A inh
- COc1ccccc1N1CCN(C(=O)CNC(=O)c2ccc(Cl)cc2Cl)CC1
 : -4	-2%	1.4	-10%	-6	5
- COc1ccccc1OCCCCOc1ccccc1C(C)=O
 : 22	-24%	12	-7%	-7	11
- COCCSc1ccccc1C(=O)NCc1ccc(S(N)(=O)=O)cc1
 : 4	10%	2.0	-32%[inhibitor]	-5	3
- O=C(O)c1cn(-c2ccccc2)nc1-c1ccncc1
 : 5	-11%	0.7	?	-7	2
- CC(=O)Nc1ccc2c(c1)n(C)c(=O)n2C
 : 4	10%	0.9	-2%	-11	0
- O=C1C2CC=CCC2C(=O)N1c1ccc(NCCc2ccc(Cl)cc2)c([N+](=O)[O-])c1 (stereo not drawn)
 : -29	6%	-4.4	12%	2	?
- COc1ccccc1OCC(=O)Nc1ccc(S(=O)(=O)N2CCN(C)CC2)cc1
 : -8	3%	1.0	-14%	0	11
- CN(CC(=O)Nc1ccccc1C(F)(F)F)C(=O)C1CCN(S(=O)(=O)c2ccc3c(c2)OCCO3)CC1
 : 2	4%	0.6	3%	11	4
- O=C(O)C1C2OC(C(Br)C2Br)C1C(=O)O (stereo not drawn)
 : 4	3%	-2.3	3%	-2	0
- O=C(CCn1c(=O)sc2ccccc21)NCCCn1ccnc1
 : 3	4%	-1.1	-57%[inhibitor]	-10	4
- COc1ccc(-n2c(C)cc(=O)[nH]c2=O)cc1
 : 6	10%	-2.4	-5%[15.4 µM]	-57	4
- Cc1cnc(C(=O)Nc2cccc(-c3nnc4n3CCCCC4)c2)cn1
 : -2	2%	-0.4	0%	-3	3
- O=C(CSc1ccc(-c2ccccn2)nn1)Nc1ccc(F)cc1F
 : ?	-18%	-2.5	10%	3	?
- Oc1ccc(Cl)cc1C=Nc1ccc2c3c(cccc13)CC2
 : -9	-14%	-1.1	-2%[15.4 µM]	-16	6

# Screening data deposited in PubChem BioAssay by National Center for Advancing Translational Sciences (NCATS).

# The order is random; any-hit rate near 1.4%.
